TRPV1 PAM: enhances activation of the human vanilloid receptor TRPV1 | Q8NER1 | TRPV1-expressing cells, Fluo-8 calcium influx, capsaicin EC20 potentiation; host cell line not named in the record; control for the full effect not named in the record | potentiation, % at 8.33 µM | hit rate 0.02% among 320,000 | AID 540277; active means potentiation above 80%; inconclusive means 30% to 80%; inactive means below 30%; also: 0% is about no effect
Target sequence (Q8NER1 whole entry, looked up): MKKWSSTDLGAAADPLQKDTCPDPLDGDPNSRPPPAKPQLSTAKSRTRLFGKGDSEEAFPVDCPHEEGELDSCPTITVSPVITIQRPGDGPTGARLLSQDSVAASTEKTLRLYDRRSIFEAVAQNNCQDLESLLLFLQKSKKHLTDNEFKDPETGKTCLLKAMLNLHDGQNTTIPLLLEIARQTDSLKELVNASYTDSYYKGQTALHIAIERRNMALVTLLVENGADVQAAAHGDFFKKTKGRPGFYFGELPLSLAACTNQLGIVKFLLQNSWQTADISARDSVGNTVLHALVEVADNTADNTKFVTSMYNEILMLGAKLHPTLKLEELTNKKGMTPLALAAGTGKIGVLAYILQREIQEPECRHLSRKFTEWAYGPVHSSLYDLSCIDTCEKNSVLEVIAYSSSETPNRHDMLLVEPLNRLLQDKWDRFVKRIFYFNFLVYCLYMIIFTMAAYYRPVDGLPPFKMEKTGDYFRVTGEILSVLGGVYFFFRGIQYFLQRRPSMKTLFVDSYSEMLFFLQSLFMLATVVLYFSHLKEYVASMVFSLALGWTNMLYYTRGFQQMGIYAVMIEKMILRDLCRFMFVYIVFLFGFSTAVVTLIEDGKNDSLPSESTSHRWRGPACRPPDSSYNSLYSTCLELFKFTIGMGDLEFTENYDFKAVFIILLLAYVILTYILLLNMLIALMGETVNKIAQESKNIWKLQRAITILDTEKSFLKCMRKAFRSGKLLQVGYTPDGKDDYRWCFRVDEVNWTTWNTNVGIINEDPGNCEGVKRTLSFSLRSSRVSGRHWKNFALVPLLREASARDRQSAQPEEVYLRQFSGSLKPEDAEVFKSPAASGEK
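Cells expressing TRPV1 were dye-loaded with Fluo-8 and read kinetically: 10 s baseline, 3 min after compound (agonist portion), then 2 min after EC20 capsaicin (allosteric enhancer portion). Calcium-bound dye fluorescence at 480/520 nm.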
ClpP mod: qHTS Assay for Activators of ClpP; ATP-dependent Clp protease proteolytic subunit (Bacillus subtilis (strain 168)), P80244; purified B. subtilis ClpP, FRET peptide cleavage, 20 min; Potency, µM (doses to about 57.5 µM), inactives show at the highest dose activity change, negative = active; hit rate 1.9% among 340,000; AID 651965, 2013; active = well fitted falling curve with a large enough effect; inconclusive = small, poorly fitted or top-dose-only effect; inactive = no such curve, though single readings can be large or run the other way; also: potency is read from the fitted curve at half-maximal effect; the source files actives as falling curves though it sought activators and does not explain the sign; nearly all actives have a fitted effect of over 65% in size; many hits overshoot -100%
Target sequence (P80244 whole entry, looked up): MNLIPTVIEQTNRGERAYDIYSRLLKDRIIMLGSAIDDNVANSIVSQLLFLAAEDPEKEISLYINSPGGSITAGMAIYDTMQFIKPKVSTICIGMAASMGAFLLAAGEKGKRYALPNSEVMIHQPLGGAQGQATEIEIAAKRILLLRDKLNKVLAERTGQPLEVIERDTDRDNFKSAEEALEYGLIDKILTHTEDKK
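Purified B. subtilis ClpP, 10 microg/mL final in Tris/HCl pH8 with KCl, BSA, glycerol and Tween-20, cleaved an Abz/nitrotyrosine-quenched decapeptide. Fluorescence (ex 320, em 430) was read at 0 and 20 min at room temperature. Delta was normalized to 5.8 microM ADEP and DMSO/no-enzyme controls.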
CtBP-E1A inh: blocks the CtBP interaction with E1A. AlphaScreen GST-E1A/His-CtBP binding, 1536-well; active compounds read low; control for the full effect not named in the record. hit rate 0.49% among 340,000. AID 651724. activity change, % (concentration not given with the values); in the data active means activity change below about -65%; inconclusive means about -30% to -65%; inactive means above about -30%; also: % is scaled to controls: 0 for no effect and ±100 for the full control effect
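Homogeneous bead-based format: GST-tagged E1A captured on glutathione donor beads, His-tagged CtBP on nickel acceptor beads; compounds precede bead addition by 2 h at 37 °C.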
Sfp inh: Sfp phosphopantetheinyl transferase inhibition; hit rate 3.5% among 310,000; Q9F4F7; Biochemical Sfp PPTase activity, qHTS; AID 1490; Potency, µM, for the others: max response, negative = inhibition, hits mostly inhibitors; active = well fitted inhibition curve with a large enough effect; inconclusive = small, poorly fitted or top-dose-only effect, or another doubt; inactive = no such curve, though single readings can be large or run the other way;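 also: the enzyme is Sfp with the accession as filed and its product quenches rhodamine fluorescence; potency is read from the fitted curve at half-maximal effect; 0% = enzyme reaction without inhibitor and -100% = no enzyme wells; top concentration of the series not given in the record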
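Step 1, compound plus 15 nM Sfp-PPTase, 15 min, room temperature. Step 2, add rhodamine-CoA (5 uM) and BHQ-2-YbbR (12.5 uM). Step 3, read 525/598 nm fluorescence at 0 and 30 min.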
Menin-MLL FL inh: menin-MLL binding inhibition, fluorescein peptide. Fluorescence polarization, fluorescein-MLL peptide displacement from menin. FP activity change, % at 61.4 µM. 290,000 tested, under 10 active. AID 1766; inconclusive = falling polarisation curve, or a change in total fluorescence; inactive = total fluorescence flat and polarisation flat or rising; no compound was filed as active; the % refers to the polarisation; negative = inhibition;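 also: % of control where 0% means no effect; inhibitors lower the polarisation; unlabelled MLL peptide was the positive control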
gsp antag: antagonizes gsp, the McCune-Albright syndrome mutation; gsp-mutant cells, cAMP HTRF, 30 min; control for the full effect not named in the record; Potency, µM (titrated, usually from 76.9 µM), without a hit: top-dose activity change, negative = inhibition, usual class: inhibitors; hit rate 0.4% among 340,000; AID 624288; active = falling curve of any shape with a large fitted effect; inconclusive = falling curve, mostly with a smaller effect; inactive = flat or rising curve; cell line not stated here;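 also: intracellular cAMP measured with PDE inhibitor Ro 20-1724 present during compound exposure; potency is read from the fitted curve at half-maximal effect; % is scaled to controls: 0 for no effect and ±100 for the full control effect; nearly all actives have a fitted effect of over 65% in size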
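Cells, 2000/well, grown 16–24 h in DMEM 10% FBS with 0.5 mg/ml G418, then compounds plus […] (300 uM addition stock), 30 min at 37C. cAMP read by HTRF (cAMP-d2 and anti-cAMP antibody-K in lysis buffer) after 30 min RT.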
gsp agonist: agonists of gsp mutant (McCune-Albright syndrome); Potency, µM (top dose mostly 76.9 µM), for inactives: top-dose activation (cAMP increase), actives largely listed as activators; hit rate 0.13% among 340,000; gsp mutant cells, cAMP HTRF, 30 min; control for the full effect not named in the record; AID 624287; active = well fitted activation curve with a large enough effect; inconclusive = small, poorly fitted or top-dose-only effect, or another doubt; inactive = no such curve, though single readings can be large or run the other way; cell line not stated here;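 also: phosphodiesterase inhibitor Ro 20-1724 added with compounds to block cAMP breakdown; potency is read from the fitted curve at half-maximal effect; nearly all actives have a fitted effect of over 60% in size; about a fifth of the inactives were tested at one dose only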
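Cells stably selected in G418 were plated at 2000/well, grown 16-24 hr, then given compounds in DMSO with the PDE inhibitor […] (300 uM solution added) for 30 min at 37C; cAMP was read by HTRF.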
The depositor's hits bear a star; ? = inconclusive; · = not tested or not shown; & = joins results of further samples; [ ] = another dose, or the depositor's remark.

SMILES	TRPV1 PAM	ClpP mod	CtBP-E1A inh	Sfp inh	Menin-MLL FL inh	gsp antag	gsp agonist
COc1ccc(OCCOC(=O)c2ccc(-n3cnnn3)cc2)cc1	1	0.1%	-2	4%	-3.1	-12%	-20%
CN(C)CCN(C(=O)c1ccc(S(=O)(=O)N(C)c2ccccc2)cc1)c1nc2cc3c(cc2s1)OCCO3	18	·	-8	1%	4.9	-4%	-13%[15.4 µM]
O=C1c2ccccc2C(=O)N1OCCOCCOCCBr	-4	-1.8%	4	5%	1.0	2%	9%
COc1ccccc1C(=O)N(NC(=O)Oc1ccccc1)C(C)(C)C	-4	-1.1%	1	2%	3.8	3%	-2%[15.4 µM]
COc1ccc(NC(=O)C(NC(=O)CC2NC(=O)NC2=O)c2ccccc2)cc1 (centres undefined)	13	-2.7%	-17	-1%	0.0	11%	-1%[15.4 µM]
Cc1ccc(C(C)(O)CS(=O)(=O)Cc2ccccc2Cl)cc1 (centres undefined)	0	-0.5%	-2	-18%	-0.8	1%	-4%
O=C(CSc1ncn[nH]1)NCCOc1ccccc1	-5	-1.1%	3	18%	-1.0	-5%	0%
CCc1cc(=O)oc2c3c(cc(OCC(=O)NCCCn4ccnc4)c12)OC(C)(C)CC3	11	4.5%	-3	19%	0.6	9%	·
C=CCN1C(=O)C(Cc2ccc(SC(F)F)cc2)SC1=Nc1ccc(C(=O)O)cc1 (centres undefined)	14	2.1%	0	10%	0.5	-28%	0%[15.4 µM]
COC(C)(C)[C@H](O)COc1c2ccoc2cc2oc(=O)ccc12	16	-14%	·	-1%	-2.8	8%	8%
CC(=O)Nc1ccc(C(=O)NCCN2CCOCC2)cc1	3	-1.4%	7	-2%	-0.5	5%	-32%[inhibitor]
Cc1ccc(N)cc1NC(=O)CN1CCOCC1	11	·	2	9%	-2.2	9%	-78%[inhibitor]
Cc1cc(CNC(=O)c2cc(COc3c(F)cccc3F)on2)nn1C	-1	1.4%	-1	23%	-7.7	5%	7%
CCOC(=O)n1c(=O)oc2cc(S(=O)(=O)N3CCCCC3)ccc21	2	0.7%	-4	16%	-0.7	-7%	2%
Cc1ccccc1C(=O)Nc1ccccc1N1CCCCC1	-6	·	29	-6%	3.7	-8%	9%
C[C@H]1CN([C@@H](C)CO)C(=O)CCCn2nncc2CO[C@H]1CN(C)S(C)(=O)=O	·	-0.1%	4	·	·	·	-28%
COc1ccccc1C(=O)NNC(=O)C(=O)NC(C)C	-3	·	-1	-13%	-5.7	11%	9%
CC(NC(=O)c1ccc(-c2ccccc2)cc1)C(c1ccccc1)N1CCOCC1 (centres undefined)	12	-0.1%	2	·	·	-13%	-11%
O=C(C1CCCO1)N(c1cccc(Cl)c1)C1C=CS(=O)(=O)C1 (centres undefined)	-11	-15%	1	10%	-0.6	1%	-8%
N#Cc1ccccc1NC(=O)CSc1cn[nH]n1	-6	·	7	7%	-4.5	-10%	-13%
CCOP(=O)(OCC)C(NC(=O)Nc1ccc(C)c(Cl)c1)c1ccccc1 (centres undefined)	0	·	2	4%	4.8	-14%	6%[15.4 µM]
CC1CC(C)CN(C(=O)CNS(=O)(=O)c2ccc(Br)s2)C1 (centres undefined)	-4	1.7%	10	2%	2.4	-3%	?
CN(C)c1nc(OCCOC(=O)COc2ccc(Cl)cc2Cl)nc(N(C)C)n1	2	-0.4%	7	2%	2.9	-18%	-53%[inhibitor]
C/C(=N/NC(=O)CNC(=O)C(c1ccccc1)c1ccccc1)c1ccco1	-7	·	0	4%	3.0	8%	-12%
CCOc1ccccc1CNC(=O)C1CCN(c2nnc(C)c3c(C)n(-c4ccc(C)cc4)nc23)CC1	9	4.2%&-24%	1	2%	12	-23%	?
C=CCNC(=O)Nc1ccc2oc(C)nc2c1	2	0.8%	2	-9%	1.7	-6%	1%
O=C(COC(=O)c1cc(-c2ccco2)nc2ccccc12)NCc1ccccc1	-12	?	10	40µM*	3.8	-7%	-15%
CNCC(=O)N1CCN(c2ncc(C(F)(F)F)cc2Cl)CC1	5	·	6	15%	0.1	·	5%[15.4 µM]
Cc1ccc(C(=O)N2CCN(CCNC(=O)C(=O)NC(C)C)CC2)cc1	-1	·	-3	7%	-3.4	2%	1%[15.4 µM]
COc1ccccc1/C=C/[C@@H]1C[C@H]2CN(Cc3cccc(Cl)c3)C(=O)[C@]23CCCN13	6	·	-6	-3%	10	-20%	0%[15.4 µM]
COc1cc(C(=O)N/N=C/c2sc(N3CCOCC3)nc2-c2ccccc2)cc(OC)c1OC	-4	·	-6	19%	5.8	-3%	-11%[15.4 µM]
CCc1nn2c(=O)cc(COc3ccc(NC(=O)c4ccco4)cc3)nc2s1	-14	-3.3%	0	3%	·	?	-17%
CC1CCC(NC(=O)c2cc(Cl)nc3ccccc23)CC1 (centres undefined)	1	4.2%	·	·	·	3%	8%
O=C(Nc1ccccc1)N1CCCN(c2ccc(C(F)(F)F)cn2)CC1	-17	-29%	-4	-8%	6.0	-4%	-37%[inhibitor]
CCCCN(CC)CCCNC(=O)CC1Nc2ccccc2NC1=O (centres undefined)	3	?	2	9%	2.8	9%	?
COc1ccc(-c2noc(C(C)n3nc(C)c([N+](=O)[O-])c3C)n2)cc1OC (centres undefined)	4	-0.2%	-3	-10%	0.0	1%	-18%

4 of these compounds, set out differently.
Every second line gives: TRPV1 PAM, ClpP mod, CtBP-E1A inh, Sfp inh, Menin-MLL FL inh, gsp antag, gsp agonist
- O=C(CSc1ncn[nH]1)NCCOc1ccccc1
→ -5, -1.1%, 3, 18%, -1.0, -5%, 0%
- COc1ccc(-c2noc(C(C)n3nc(C)c([N+](=O)[O-])c3C)n2)cc1OC (centres undefined)
→ 4, -0.2%, -3, -10%, 0.0, 1%, -18%
- CCOc1ccccc1CNC(=O)C1CCN(c2nnc(C)c3c(C)n(-c4ccc(C)cc4)nc23)CC1
→ 9, 4.2%&-24%, 1, 2%, 12, -23%, ?
- COc1ccc(NC(=O)C(NC(=O)CC2NC(=O)NC2=O)c2ccccc2)cc1 (centres undefined)
→ 13, -2.7%, -17, -1%, 0.0, 11%, -1%[15.4 µM]

More results
SMILES	TRPV1 PAM	ClpP mod	CtBP-E1A inh	Sfp inh	Menin-MLL FL inh	gsp antag	gsp agonist
C/C(=N\Nc1nnc(C)c(=O)[nH]1)C(=O)O	1	-0.4%	-87*	-15%	4.7	2%	-26%
Cc1cc(OCC(=O)N2CCOCC2)c(C(C)C)cc1Cl	-18	-0.7%	0	2%	0.2	-20%	2%
CC(C)(C)Nc1c(-c2cccs2)nc2ccccn12	-8	·	-18	-2%	0.6	-2%	-15%[15.4 µM]
O=C1c2ccccc2CN1CCNS(=O)(=O)c1ccc2ccccc2c1	-1	-7.0%	1	20%	2.5	-3%	-13%
OCC1OC(n2cnc3c(NCCc4ccccc4)ncnc32)C(O)C1O (centres undefined)	·	1.7%	4	·	·	-4%	·
COc1ccc2c(C)cc(N3CCOCC3)nc2c1	-27	?	5	-3%	-0.8	-4%	-4%
Fc1ccc(COc2cccc(CNCc3ccncc3)c2)cc1	2	1.0%	0	-2%	-3.1	-21%	-12%[15.4 µM]
O=C(Nc1cc(S(=O)(=O)N2CCCCCC2)ccc1OCC(F)(F)F)C1CCC1	15	1.6%	0	13%	·	4%	5%
O=S(=O)(Nc1ccc(S(=O)(=O)N2CCCCC2)cc1)c1cccs1	1	-2.5%	3	17%	?	-14%	-6%
O=C(CC1Sc2ncnn2C1=O)Nc1ccc(Br)cc1 (centres undefined)	8	-0.9%	0	50µM*	5.5	5%	14%
Cn1c(=O)cc(SCC(=O)N2CCN(C(=O)c3ccco3)CC2)c2ccccc21	·	-28%	-9	-23%	-3.1	-2%	?
CCOC(=O)C(CC)Sc1cc(C)nc2ccc(OC)cc12 (centres undefined)	-8	0.1%	11	1%	-0.5	10%	-6%[15.4 µM]
CC(=O)C(C(c1ccccc1)c1c[nH]c2ccccc12)[N+](=O)[O-] (centres undefined)	15	-0.7%	·	26%	3.3	0%	-2%
C=CCc1ccc(OCCCCN2CC(C)CC(C)C2)c(OC)c1 (centres undefined)	10	·	-23	-29%	-6.9	8%	0%
CC1=C(C#N)C(NC(=O)c2ccccc2Cl)(C(F)(F)F)C(=O)N1 (centres undefined)	10	0.6%&1.4%	-4	20%	5.6	15%	-10%
COc1cccc(/C=C/C(=O)OCC(=O)c2ccc[nH]2)c1	·	4.0%	-25	·	·	·	-16%
CC(C)CC(=O)N1CCC(O)(CS(=O)(=O)Cc2ccccc2Cl)CC1	-5	-3.1%	6	11%	0.8	0%	0%
O=C(CCS(=O)(=O)c1ccc(Br)cc1)Nc1cc(F)ccc1F	21	-2.5%	4	-5%	-0.9	8%	-9%
O=C(c1cc(-c2ccccc2)on1)N1CCc2ccccc2C1	-4	·	4	-3%	0.6	4%	-2%
O=C1CC(c2ccc(F)cc2)Cc2nc(N3CCc4ccccc43)ncc21 (centres undefined)	1	·	·	0%	4.6	·	·
O=C(O)CC1c2ccccc2C=Cc2ccccc21	-26	?	·	·	·	-4%	-61%
CCc1nnc(NC(=O)CSc2nnc(CNc3cccc(Cl)c3)n2CC)s1	-1	1.1%	-9	14%	3.8	-15%	-58%[inhibitor]
COc1ccc(C(=O)NN2CC(O)=C(c3nc4ccccc4n3C)C2=N)cc1OC	16	-0.5%	6	-4%	1.9	-1%	17%[15.4 µM]
COc1ccc(C(=O)C2CCCN(C(=O)c3cccnc3OC)C2)c(C)c1 (centres undefined)	-5	·	4	5%	0.5	-6%	-40%[inhibitor]
Nc1nonc1-n1nnc(C(=O)N/N=C/c2ccc(Br)cc2)c1CSC1=NCCS1	-2	-3.4%	-4	15%	7.0	?	1%[15.4 µM]
CC(C)(C)OC(=O)C[C@@H]1C/C=C\C[C@H](CC(=O)N[C@@H](CO)Cc2ccccc2)C(=O)N[C@H](Cc2ccccc2)COC1=O	·	-1.2%	·	·	·	-7%	-20%
COc1ccccc1N(C(=O)CCl)c1cn(C(C)=O)c2ccccc12	-1	-0.1%	·	6%	1.1	-6%	-3%

Screening data: PubChem BioAssay, National Center for Advancing Translational Sciences (NCATS)
